Screens: PubChem BioAssay, National Center for Advancing Translational Sciences (NCATS)
SARS PLP yeast: qHTS of Yeast-based Assay for SARS-CoV PLP. S. cerevisiae expressing SARS-CoV PLpro, growth rescue; control for the full effect not named in the record. AID 485353, 2010. 0.19% of 330,000 active. Potency, µM (highest dose often 32.9 µM), for the others: at the highest dose activity, positive = growth rescue; further: 0% is about no effect; nearly all actives have a fitted effect of over 55% in size; growth read by luminescence after 48 h
RE007 growth inh: qHTS Assay for Inhibitors of the HIV-1 protein Vpr | S. pombe RE007 Vpr strain, BacTiter-Glo ATP luminescence, 24 h; control for the full effect not named in the record | Potency, µM (top dose mostly 92.2 µM), for the others: top-dose activity change, negative = less growth | 0.21% of 360,000 active | AID 651644, 2012; active = well fitted falling curve with a large enough effect; inconclusive = small, poorly fitted or top-dose-only effect; inactive = no such curve, though single readings can be large or run the other way;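 further: on the % scale 0 is the no-effect control and ±100 the full control effect; nearly all actives have a fitted effect of over 50% in size; the assay follows cell death caused by Vpr and the record does not say whether a fall means rescue or toxicity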
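Fission yeast strain RE007, carrying one chromosomally integrated HIV-1 vpr copy, was seeded at OD 0.01 in PMG+AL medium with 23 nL pinned compound. After 24 h at 30 °C and 99% humidity, viability was read by BacTiter-Glo luminescence.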
Cruzain inh Det: qHTS Assay for Promiscuous and Specific Inhibitors of Cruzain (with detergent). purified cruzain, Z-FR-AMC fluorescence, 0.01% Triton. Cruzipain (Trypanosoma cruzi), P25779. Potency, µM, without a hit: max response, negative = inhibition, actives largely listed as inhibitors. AID 1478, 2009. 0.43% of 200,000 active; active means well fitted curve in the direction sought with a large enough effect; inconclusive means small, poorly fitted or top-dose-only effect, or another doubt; inactive means no such curve, though single readings can be large; an effect the other way counts as inactive or inconclusive;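 further: plate controls were neutral wells for no effect and buffer without enzyme for full effect; nearly all actives have a fitted effect of over 40% in size; top concentration of the series not given in the record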
Target sequence (P25779 123-467 limits assumed): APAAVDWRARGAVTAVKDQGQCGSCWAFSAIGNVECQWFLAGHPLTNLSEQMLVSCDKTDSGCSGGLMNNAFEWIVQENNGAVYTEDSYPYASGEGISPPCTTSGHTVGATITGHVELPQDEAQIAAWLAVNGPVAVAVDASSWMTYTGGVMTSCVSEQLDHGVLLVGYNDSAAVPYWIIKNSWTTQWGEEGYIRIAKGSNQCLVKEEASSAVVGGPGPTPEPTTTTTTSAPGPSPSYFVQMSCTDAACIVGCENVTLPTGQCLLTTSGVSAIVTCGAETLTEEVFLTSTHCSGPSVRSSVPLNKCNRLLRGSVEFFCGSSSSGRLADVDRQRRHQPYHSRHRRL
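Cruzain (1.5 nM) preincubated 15 min at RT with compound in 100 mM sodium acetate pH 5.5, 5 mM DTT, 0.01% Triton X-100. Reaction started with 2 uM Z-FR-AMC; AMC fluorescence (ex 360/em 450 nm) change over 60 s gave rate.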
LASV entry inh: qHTS for Inhibitors of binding or entry into cells for Lassa Virus | Lassa virus pseudotype entry inhibition, cell reporter; control for the full effect not named in the record | Potency, µM (highest dose often 37.9 µM), inactives show at the highest dose activity change, negative = inhibition, actives largely listed as inhibitors | 1.2% of 300,000 active; active means well fitted inhibition curve with a large enough effect; inconclusive means small, poorly fitted or top-dose-only effect, or effect the other way; inactive means flat fitted curve, though single readings scatter; tested in HEK293 cells; further: on the % scale 0 is the no-effect control and ±100 the full control effect; nearly all actives have a fitted effect of over 50% in size; luciferase read-out
StopGo reporter: High Throughput Screening for Foot and Mouth Disease Virus Antivirals; human cells with a luciferase reporter of 2A StopGo recoding; control for the full effect not named in the record; Potency, µM (titrated, usually from 57.9 µM), without a hit: top-dose signal change, negative = less light; 1.2% of 410,000 active; AID 1159524, 2015; active = well fitted falling curve with a large enough effect; inconclusive = small, poorly fitted or top-dose-only effect; inactive = no such curve, though single readings can be large or run the other way; tested in HEK293T cells; further: on the % scale 0 is the no-effect control and ±100 the full control effect; nearly all actives have a fitted effect of over 45% in size; luciferase light after 4 h
NS1 function inh: qHTS Assay for Inhibitors of Influenza NS1 Protein Function | S. cerevisiae slowed by influenza A NS1, growth recovery by OD600 | Potency, µM (series often up to 46.1 µM), without a hit: at the top dose activity, positive = more growth | 0.4% of 270,000 active | AID 2326, 2010; further: actives are rising curves; nearly all actives have a fitted effect of over 50% in size
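OD600 was taken as the measure of yeast growth restored by compound in an NS1-expressing S. cerevisiae strain. Cells had been washed out of glucose medium and diluted 1:100 into galactose -URA medium, pH 6.0.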
Marburg entry inh: qHTS for inhibitors of binding or entry into cells for Marburg Virus; Marburg virus pseudotyped entry inhibition, cell reporter; control for the full effect not named in the record; about a third of the inactives were read at about 46 µM; Potency, µM (series often up to 37.8 µM), inactives show at the top dose activity change, negative = inhibition, most hits filed as inhibitors; 1.8% of 300,000 active; AID 540276, 2011; active = well fitted inhibition curve with a large enough effect; inconclusive = small, poorly fitted or top-dose-only effect, or effect the other way; inactive = flat fitted curve, though single readings scatter; tested in HEK293 cells; about a fifth of its hits are not listed in these tables; further: on the % scale 0 is the no-effect control and ±100 the full control effect; luciferase read-out
Cruzain inh noDet: qHTS Assay for Promiscuous and Specific Inhibitors of Cruzain (without detergent); Cruzipain (Trypanosoma cruzi), P25779; purified cruzain, Z-FR-AMC fluorescence, no detergent; Potency, µM, inactives show max response, negative = inhibition, actives largely listed as inhibitors; 2.3% of 200,000 active; AID 1476, 2009; active means well fitted curve in the direction sought with a large enough effect; inconclusive means small, poorly fitted or top-dose-only effect, or another doubt; inactive means no such curve, though single readings can be large; an effect the other way counts as inactive or inconclusive;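 further: plate controls were enzyme without inhibitor for no effect and buffer without enzyme for full effect; nearly all actives have a fitted effect of over 40% in size; top concentration of the series not given in the record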
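Purified cruzain at 1.5 nM, pre-incubated 15 min with compound at room temperature in 100 mM sodium acetate pH 5.5, 5 mM DTT, 0.00005% Triton X-100. Reaction started with 2 uM Z-FR-AMC; AMC fluorescence increase over 60 s gives rate.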
* = called active by the depositor; ? = inconclusive; / = no result given; & = joins results of further samples; [ ] = dose if it differs, or a comment. Unless noted, the call rests on the fitted dose curve; in most records, active means well fitted rising curve with a large enough effect; inconclusive means small, poorly fitted or top-dose-only effect; inactive means no such curve, though single readings can be large or run the other way. Potency means the concentration at half of the fitted maximal effect. Hits appear at their usual frequency; any-hit rate near 4.6%.

SMILES | SARS PLP yeast | RE007 growth inh | Cruzain inh Det | LASV entry inh | StopGo reporter | NS1 function inh | Marburg entry inh | Cruzain inh noDet
CCOC(=O)C1(Cc2ccccc2)CCN(Cc2cnn(-c3ccccc3)c2)CC1 | 0% | -20% | / | ? | -17% | -1% | ? | /
CC(=O)Nc1ccc(C(=O)NN2C(=O)c3ccccc3C2=O)cc1 | 1% | -9% | / | / | 8% | / | 1%[46.1 µM] | /
CCOc1ccc(-n2c(-c3ccccc3)c[nH]c2=S)cc1 | -4% | 5% | / | -11% | 8% | 7% | 5%[46.1 µM] | /
Cc1cccc(C)c1OCc1n[nH]c(=S)n1N | 4% | 5% | / | -1% | -16% | / | 0% | /
O=C(Nc1ccc(O)c(C(=O)O)c1)c1cccc(NC(=O)c2ccco2)c1 | -7% | 8% | / | -24%[46.1 µM] | -3% | 7% | 8%[46.1 µM] | /
CCCCCCOc1ccc(C(=O)NCCCn2ccnc2)cc1 | -1% | 1% | / | / | -1% | / | 0%[46.1 µM] | /
O=C(NCC(O)COc1ccc([N+](=O)[O-])cc1)c1ccccc1 (stereo not drawn) | 1% | 11% | / | 9% | -24% | 2% | 2% | /
Cc1cc(C)cc(NC(=O)CSc2nc3c([nH]c4ccccc43)c(=O)n2-c2ccc(F)cc2)c1 | / | / | 1.6% | -23%[46.1 µM] | 0% | / | / | ?
CNC(=O)c1nnn(-c2ccccc2)c1C(=O)NC | 14% | 18% | -10% | 12% | 1% | 8% | 0% | 15%
Cn1c(SCc2ccc(Cl)cc2)nnc1C1CC1 | 0% | -5% | / | 6% | 11% | 5% | -1%[46.1 µM] | /
O=C(O)c1ccc(C2SCC(=O)N2Cc2ccco2)cc1 (stereo not drawn) | -2% | 7% | / | 7%[46.1 µM] | 5% | -1% | 7%[46.1 µM] | /
COc1ccc(NC(=O)C2=C(C)Nc3ncnn3C2c2cccn2C)cc1 (stereo not drawn) | / | / | -1.8% | 1%[46.1 µM] | -9% | / | / | 5%
COC(=O)c1cc(C(=O)OCC(=O)Nc2cc(C)on2)cc([N+](=O)[O-])c1 | -3% | -6% | / | 25% | -13% | -4% | 3%[46.1 µM] | /
COc1cccc(CN(C)C(=O)c2cc(-c3cccs3)nc3ccccc23)c1 | -2% | -9% | / | ? | -29% | -62% | ? | /
Cn1nc(-c2ccc(C(=O)N3CCN(Cc4ccccc4)CC3)cc2)c2ccccc2c1=O | -3% | 7%[3.69 µM] | 2.3% | 0% | ? | -4% | ? | 0%
CCc1ccc(NS(=O)(=O)c2ccc3[nH]cc(C(=O)N4CCc5ccccc54)c(=O)c3c2)cc1 | -18% | -10% | -7.4% | 15% | 13% | -39% | ? | -13%
CN1CCN(C(=O)C2=C[C@H](C(C)(C)C)C[C@H](OCCCCO)O2)CC1 | 0% | 0% | / | / | -10% | 5% | / | /
CCOC(=O)C1=C(O)/C(=C/c2ccc(OCC(=O)O)c(OC)c2)SC1=Nc1ccc(OCC)cc1 | -10% | -10% | -6.0% | -25% | -3% | 22% | -1%[46.1 µM] | ?
O=C(Nc1ccccc1)/C(=C/c1cccc(Br)c1)NC(=O)c1ccco1 | 23% | 0% | 5.3% | -8% | -5% | 24% | -19%[46.1 µM] | -26%
CCc1ccc(NC(=S)NC2CC3CCC(C2)N3Cc2ccco2)cc1 (stereo not drawn) | 7% | -12% | -5.6% | ? | -8% | 3% | ? | -9%
O=C(Cc1ccccc1)Nc1ccc(CN2CCOCC2)cc1 | 8% | -2% | 1.9% | 15% | / | -8% | 8% | 6%
COc1ccc(CNC(=O)CSc2nc(SC)ns2)cc1 | 1% | -3% | / | / | -5% | -12% | / | /
COCCn1c(-c2ccc(OC)cc2)nc2oc3cc(OC)ccc3c(=O)c2c1=O | -1% | -4% | -1.8% | -13% | -5% | -13% | 2% | -1%
S=c1[nH]nc(-c2cccnc2)n1Cc1ccccc1 | 5% | -1% | 2.1% | -10% | -8% | 1%[9.22 µM] | -5%[46.1 µM] | 2%
Cc1onc(-c2ccccc2)c1C(=O)N/N=C/c1ccc([N+](=O)[O-])c(O)c1 | 5% | -10% | / | / | -22% | 3% | / | /
N#CCSc1nnc(Nc2ccccc2)s1 | -6% | 10% | -1.2% | 1% | -5% | 2% | 12% | -11%
CCN(CC)c1ccc(NC(=O)CCc2nnc3ccc(N4CCCCC4)nn23)c(C)c1 | -4% | -6% | / | / | -21% | 0% | / | /
CCCCc1c(C)nc(N2CCCC2)[nH]c1=O | 0% | 13% | / | / | -5% | -2% | / | /
Cc1cc(C)cc(OCC(=O)NC2=NCCS2)c1 | -4% | 15% | 1.8% | 16% | 35%[activator] | -14% | 3% | 4%
CN(Cc1ccccc1F)C(=O)C1CCCN(C(=O)c2ccc(Cl)cc2)C1 (stereo not drawn) | -3% | 0% | / | ? | -27% | / | ? | /
Cc1nc(SCC(=O)Nc2ccc(CN3CCCC3)cc2)c2c(C)c(C)sc2n1 | 6% | -26% | / | ? | -16% | / | ? | /
COc1cccc(C(=O)Nc2cc([N+](=O)[O-])ccc2N2CCN(C)CC2)c1 | 4% | -15% | 1.8% | 5% | -22% | 10% | -10% | -16%
Cc1nc(-n2nc(C)c(CCC(C)C)c2C)sc1C(=O)Nc1cccc(Cl)c1C | / | / | 0.5% | ? | 29% | / | 23%[46.1 µM] | -5%
COCC(=O)n1nc(-c2ccco2)nc1NCc1ccccc1Cl | / | / | -2.7% | ? | 21% | / | -2%[46.1 µM] | -2%
O=S(=O)(c1cnc[nH]1)N1CCN(c2ccccc2)CC1 | 3% | 8% | 5.2% | / | -21% | 3% | / | 0%
CCOC(=O)c1c(NC(=O)/C=C/c2ccc(OCC)c(OC)c2)sc2c1CCC2 | / | / | -0.7% | 4%[46.1 µM] | -10% | / | 9%[46.1 µM] | 19%
CCOc1ccc(CNc2ncc(-c3ccccc3)n2C)cc1 | -8% | -16% | / | -3% | -5% | -23% | ? | /
CCOC(=O)N1CCN(C(=O)c2c(Cl)cnn2C)CC1 | 0% | -17% | / | / | -26% | 0% | / | /
CCc1cccc(CC)c1NC(=O)COC(=O)CCc1cc(OC)c(OC)c(OC)c1 | -16% | -11% | -1.0% | ? | -2% | -11% | 13% | 6%
CC(C)(C)C(=O)O/N=C(\N)COc1cccc(Cl)c1 | -16% | 0% | / | -22% | 45%[activator] | -72% | 2% | /
CC(=O)CC(=O)Nc1nc(C)cc(C)n1 | 3% | 4% | / | -10% | -6% | / | -18%[46.1 µM] | /
c1csc(-c2nnc(COc3ncnc4sccc34)o2)c1 | 0% | 46% | / | / | 4% | -2% | / | /
COc1ccc(NC(=O)/C=C/C(=O)O)c(OC)c1 | -3% | 0% | / | 4% | -15% | 0% | 15%[46.1 µM] | /
CSc1cccc(NC(=O)c2sc3nc4n(c(=O)c3c2C)CCC4)c1 | 7% | 20% | / | ? | -4% | -19% | 13%[46.1 µM] | /
Cc1ccc(C(C(=O)NC2CCCC2)N(C(=O)c2csnn2)c2cccc(F)c2)o1 (stereo not drawn) | 5% | -10% | / | -3% | 6% | 12% | -15%[46.1 µM] | /
CC(C)C/C(O)=C/c1nc2cc(Cl)ccc2oc1=O | -37% | -15% | -4.0% | ? | -10% | -21% | ? | 5%
O=C(Nc1ccncc1)c1ccccc1F | -3% | -11% | -1.2% | 17% | -1% | -11% | 12% | -4%
COc1cccc(N=CC2=C(O)CCCC2=O)c1 | -1% | 40µM* | / | -12% | 22% | / | ? | /
CCOc1ccc(S(=O)(=O)Nc2ccc(-c3ccc(OC)nn3)cc2)cc1 | / | / | -4.7% | -5%[46.1 µM] | 0% | / | / | -24%
CCSc1ccccc1C(=O)N1CCCC1 | 9% | 4% | 6.4% | 0% | 4% | -2% | -3% | -6%
C=CCNC(=O)C1CC(=O)N(c2ccc(OCC(=O)Nc3ccc(C)cc3)cc2)C1 (stereo not drawn) | -2% | 1% | -20% | 13% | 11% | 4% | -5% | -4%
O=C(CSCc1ccc(F)cc1)Nc1nc2c(s1)CCCC2 | 1% | 1% | -4.9% | -1% | ? | 1% | -21% | 0%
CC(NC(=O)CN1CCN(c2cccc(Cl)c2)CC1)c1ccccc1 (stereo not drawn) | -11% | -3% | / | / | -21% | -30% | / | /
Cc1cc(Br)ccc1NC(=O)CN(C)C(=O)C1CCN(C(=O)c2ccc(F)cc2)CC1 | ? | 2% | / | 1% | -6% | / | -13% | /
Cn1c(=O)c2c(nc(OCc3cccnc3)n2Cc2ccccc2)n(C)c1=O | -4% | -2% | 4.3% | -15% | -27% | -27% | -15% | 12%
Cc1ccc([N+](=O)[O-])cc1NC(=O)CSc1nnc(C)n1CC1CCCO1 (stereo not drawn) | 1% | -7% | / | / | 4% | 5% | 0%[46.1 µM] | /
Oc1ccccc1CNCCCNCc1ccccc1O | -9% | 11% | 4.0% | ? | -17% | 0% | ? | 7%
Cc1onc(-c2ccccc2)c1C(=O)N1CCN(S(=O)(=O)c2ccccc2C(F)(F)F)CC1 | 9% | -14% | / | 10% | -5% | ? | -2%[46.1 µM] | /
Cc1cc(C)n(NC(=S)NC2CCCC2)c(=O)c1C#N | 0% | 1% | / | -15% | 23% | 1% | 11%&11%[46.1 µM] | /
Cc1cccc(Nc2nc(N)nc(CN3CCN(c4ccccc4)CC3)n2)c1 | 2% | -17% | -3.5% | -5% | -25% | -12% | 2% | 4%
Next results follow:
SMILES | SARS PLP yeast | RE007 growth inh | Cruzain inh Det | LASV entry inh | StopGo reporter | NS1 function inh | Marburg entry inh | Cruzain inh noDet
Cc1ccc(OCc2ccc(C(=O)Nc3cc(C)on3)o2)c([N+](=O)[O-])c1 | -5% | -14% | / | / | -2% | 6% | / | /
Cc1cc(NC(=O)CCCC(=O)OCC(F)(F)C(F)F)cc(C)c1C(=O)O | 2% | -10% | 5.2% | 0% | -28% | 1% | 12% | -3%
COc1ccc(OC)c(NC(=O)N[C@@H](Cc2ccccc2)C(=O)O)c1 | -1% | -3% | 2.1% | 5% | 3% | 5% | 13% | -13%
CN1CN(C)c2ccc([N+](=O)[O-])c3cccc1c23 | -2% | 2% | / | ? | -18% | 3% | 4% | /
